VDR inhibitor: Inhibitors of the vitamin D receptor (VDR): qHTS; Vitamin D3 receptor (Homo sapiens), P11473; VDR-SRC2-3 peptide fluorescence polarization, 2 h; Potency, µM, inactives show max response, negative = inhibition, usual class: inhibitors; actives 0.93% (n = 400,000); AID 504847, 2011; active = well fitted inhibition curve with a large enough effect; inconclusive = small, poorly fitted or top-dose-only effect, or another doubt; inactive = no such curve, though single readings can be large or run the other way; note: series mostly up to about 120 µM
Target sequence (P11473 whole entry, looked up): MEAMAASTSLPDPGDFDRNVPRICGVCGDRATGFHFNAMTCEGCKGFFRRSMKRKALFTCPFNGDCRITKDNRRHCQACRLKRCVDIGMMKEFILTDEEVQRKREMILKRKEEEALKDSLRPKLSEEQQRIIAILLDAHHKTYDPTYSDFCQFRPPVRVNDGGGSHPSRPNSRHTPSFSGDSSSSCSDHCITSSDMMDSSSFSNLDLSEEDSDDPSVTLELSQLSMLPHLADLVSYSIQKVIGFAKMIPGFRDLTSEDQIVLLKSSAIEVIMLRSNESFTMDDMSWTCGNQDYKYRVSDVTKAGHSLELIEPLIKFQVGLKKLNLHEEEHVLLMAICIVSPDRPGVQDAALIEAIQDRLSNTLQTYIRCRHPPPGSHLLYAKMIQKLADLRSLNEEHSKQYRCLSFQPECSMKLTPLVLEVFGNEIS
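Reagent solutions, kept cold and dark, are dispensed first; compounds are then pinned in at 23 nl, plates briefly spun, and incubated 2 h at ambient temperature. Inhibition of VDR–SRC2-3 peptide binding is read by fluorescence polarization.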
* hit, by the source's call; ? = inconclusive; & = joins results of further samples. % is set by controls: 0 for no effect and ±100 for the full control effect; potency is the fitted concentration of half-maximal effect. The list is partial. The share of hits here may be higher or lower than overall.

SMILES	VDR inhibitor
CC(=O)c1cc(-c2ccccc2)n(CCC(=O)NC2CCCC2)c1C	-8%
Cc1cc(NC(=O)NCc2ccc3c(c2)CCN3C(=O)c2ccccc2)ccc1Br	2%
CCC(C)[C@H](NC(=O)C1(c2ccccc2)CCN(C(=O)OC(C)(C)C)CC1)C(=O)N[C@@H](C(=O)O)c1ccccc1 (some centres undefined)	-33%
CC1=C(C(=O)OCC2CCCCC2)C(c2ccccc2F)CC(=O)N1 (centres undefined)	-29%
CCc1cc(=O)oc2cc3occ(-c4ccc(OC)c(F)c4)c3cc12	-20%
Clc1ccc2nnnc(-c3ccccc3)c2c1	-24%
CCN(c1ccc(C)cc1C)S(=O)(=O)c1nnc(NC(=O)c2ccc(F)cc2)s1	5%
Cn1c2cc(Br)sc2c2cnn(Cc3c(F)cccc3Cl)c(=O)c21	9%
CCn1cc(S(=O)(=O)N2CCN(Cc3ccc(F)cc3)CC2)cn1	8%
CCOCCc1nnc(NC(=O)COC)s1	10%
O=C(c1ccco1)N1CCN(C(=O)c2cc(-c3ccccc3)nc3ccccc23)CC1	8%
COCc1ccc(C(=O)N2CCN(CC(=O)N3CCCC3)CC2)cc1	-19%
CCOC(=O)N1CCN(c2c(N3CCN(c4ccccc4OC)CC3)c(=O)c2=O)CC1	2%
CCn1cnc2c(Nc3cccc(Cl)c3)nc(C#N)nc21	-7%
O=C1C2C3C=CC(C3)C2C(=O)N1/N=C/c1cc(Br)cc([N+](=O)[O-])c1O (centres undefined)	0%
CCCCc1ccc(-n2c(Cc3cccs3)n[nH]c2=S)cc1	-7%
CC(C)CC(C(=O)Nc1ccc2c(c1)OCCO2)N1C(=O)c2ccccc2C1=O (centres undefined)	-1%
CC(Oc1ccc(F)cc1)C(=O)N(Cc1ccccc1)c1c(N)n(Cc2ccccc2)c(=O)[nH]c1=O (centres undefined)	-5%
Cc1ccc(-c2nc(Nc3cccc(C)c3)sc2CC(=O)O)cc1	-4%
COc1ccccc1NS(=O)(=O)c1ccc(C)c(C(=O)NCc2cccnc2)c1	-12%
Nc1[nH]nc2nc(N3CCOCC3)nc(-c3ccccc3)c12	17%
Cc1cccc(O)c1C	0%
O=C(NC(=S)N1CCCC1)c1cccc([N+](=O)[O-])c1	-5%
CCN(C(=O)COC(=O)c1cccn1C)C1CCS(=O)(=O)C1 (centres undefined)	-14%
CCc1cccc(CC)c1C(OC(C)=O)c1cccnc1 (centres undefined)	-5%
COc1ccc(Cl)cc1NC(=S)N1CCN(C(=O)C2CCCO2)CC1 (centres undefined)	-4%
CCOc1ccc(NC(=S)NC(=O)Cc2ccccc2)cc1	-11%
Cc1nnc(-c2cnn(-c3ccccc3)c2N)n1Cc1ccncc1	5%
O=S(=O)(c1ccccc1)N1CCC2(CCCN(Cc3ccccc3)C2)CC1	10%
O=C1N/C(=N/S(=O)(=O)Cc2ccccc2)S/C1=C/c1ccc2c(c1)OCO2	-16%
Cc1cccc(NC(=O)/C(C#N)=C/c2ccccc2Cl)n1	?
CCCN(C(=O)c1ccc(N(C)S(=O)(=O)c2ccc(C)cc2)cc1)C1CCS(=O)(=O)C1 (centres undefined)	-5%
O=C(OCc1cncs1)c1ccccc1	-13%
COc1ccc(NC(=O)c2cc(=O)c3ccccc3o2)cn1	-10%
O=S(=O)(Cc1ccccc1Cl)NCCOc1ccccc1	-4%
COC(=O)c1cc(C(=O)OCC(=O)NC2CCCCCCC2)cc([N+](=O)[O-])c1	-16%
Cc1ccc(C(=O)Nc2ccc(C(=O)N/N=C/c3c[nH]c4ccccc34)cc2)cc1	-7%
CCn1c(CSc2nc3ccccc3s2)nnc1SCC(=O)c1ccc(O)c(O)c1	7%
CC(=O)N1CCc2cc(Br)cc(S(=O)(=O)CCC(=O)NCc3ccc(F)cc3)c21	-6%
COc1cc(C2C(C#N)=C(N)Oc3c2oc(CO)cc3=O)cc(OC)c1OC (centres undefined)	-8%
Brc1cccc(-c2nnco2)c1	-11%
CCCc1[nH]nc2c1C(c1cc(OC)ccc1F)C(C#N)=C(N)O2 (centres undefined)	2%
N#Cc1cc([N+](=O)[O-])ccc1Oc1cccc(/C=N/NC(=O)c2ccc(Cl)cc2)c1	-5%
Cc1c(OC(C)C(=O)NC(Cc2c[nH]c3ccc(O)cc23)C(=O)O)ccc2c1oc(=O)c1ccccc12 (centres undefined)	-12%
COc1ccc(C(=O)N2CCC[C@@]3(CCN(C(=O)Nc4cccc(F)c4)C3)C2)cc1	14%
Cn1cccc1CC(=O)NNC(=O)Nc1ccccc1F	-20%
CCC(C)C(NC(=O)C1CCC(C)CC1)C(=O)NCCc1ccc(S(N)(=O)=O)cc1 (centres undefined)	17%
CCc1nonc1NC(=O)COc1ccc(Cl)c(C)c1	10%
O=C(COC(=O)CNS(=O)(=O)c1ccccc1)Nc1ncc(Cl)cc1Cl	3%
COc1ccc(-c2c(-c3ccccc3)c(C(=O)C(=O)NCCCN(C)C)n3ccc4cc(OC)c(OC)cc4c23)cc1OC	-24%
COc1cccc(C2CC(c3ccc(C)cc3)n3nc(N)nc3N2)c1 (centres undefined)	-16%
CC(C)c1ccc(NC(=S)NN2CCOCC2)cc1	?
Cc1ccc(Cn2cnc3ccccc32)cc1C	11%
COCCN(C(=O)c1ccc(OCC(C)C)cc1)c1c(N)n(Cc2ccccc2)c(=O)[nH]c1=O	-1%
CCS(=O)(=O)c1ncc(Cl)c(C(=O)N2CCN(c3cccc(Cl)c3)CC2)n1	8.9µM*
CC1=Nc2ncnn2C(c2ccccc2)/C1=N\O (centres undefined)	-2%
CCOC(=O)c1cc2c(ccn2C)n1CC(=O)N1CCN(c2cccc(C(F)(F)F)c2)CC1	8%
CCC(=O)N1CCc2cc(S(=O)(=O)CCC(=O)Nc3ccc(OC(F)(F)F)cc3)ccc21	-15%
CN(C)c1ccc(NS(=O)(=O)c2cc3c4c(c2)CC(=O)N4CCC3)cc1	-9%
CC(=O)C1=C(C)NC(=O)NC1c1cccc(O)c1 (centres undefined)	-2%

Going on with the list.
SMILES	VDR inhibitor
O=C1c2nc3ccccn3c2C(=O)N1Cc1ccccc1	2%
CC(NC(=O)c1cc2sccc2n1C)c1ccc2c(c1)OCCO2 (centres undefined)	11%
Cc1cc(C)nc(SCCN(C)C)n1	14%
CCCC(=O)NNC(=O)CCC(=O)NCc1ccccc1	3%
Cc1ccc2occ(CC(=O)Nc3c(C)cccc3C)c2c1	-5%
Cc1oc(-c2ccccc2F)nc1CS(=O)(=O)CC(=O)NCCCN(C)C1CCCCC1	-5%
COc1ccc2cc3c(N)nn(C(=O)Cc4ccc(Cl)cc4)c3nc2c1	-17%
Cc1cc(C(=O)N2CCC(C(F)(F)F)n3nccc32)on1 (centres undefined)	19%
Cc1onc(-c2c(F)cccc2Cl)c1C(=O)OCC(=O)NC(N)=O	2%
O=C(C1Cc2ccccc2CN1S(=O)(=O)c1cccs1)N1CCCCCC1 (centres undefined)	11%
Cc1ccc(S(=O)(=O)c2cn(Cc3ccccc3)c3cc(N4CCCC4)c(F)cc3c2=O)cc1C	3%
CC1CCC/C(=C\Nc2ccc3c(c2)OCO3)C1=O (centres undefined)	-2%
C=CCc1c(C)nc(SC)nc1Nc1ccc(C(=O)O)cc1	-5%
Cc1cc(C)cc(NC(=O)C2CCN(S(=O)(=O)c3ccc4[nH]c(=O)ccc4c3)CC2)c1	-10%
Cc1cc(NCc2ccc(Cl)cc2)n2cnnc2n1	3%
CSc1ccc(Cl)c(C(=O)OCC(=O)NC2CC2)c1	?
CCc1sc(-c2ccccc2)nc1C(=O)OC	20%
CS(=O)(=O)C1=NSC2=NC(=O)/C(=C\c3ccc(OS(=O)(=O)c4ccccc4)cc3)C(=N)N21	35µM*
CCCCCC[n+]1c(-c2ccccc2)csc1Nc1ccccc1	-8%
O=C(O)c1ccc2c3n(nc2c1)-c1ccc(Cl)cc1CO3	-7%
CCCCN(CCCC)C(=O)CN(C)S(=O)(=O)c1ccc2c(c1)c(=O)n(C)c(=O)n2C	19%
CCOC(=O)C1C(=O)NC(N2CCN(c3ccccc3)CC2)=NC1c1ccco1 (centres undefined)	-10%
COc1ccc2nc(NCCNC(=S)NCCCN3CCOCC3)c(C#N)cc2c1	-5%
CCOc1cc(C(=O)NC(=S)Nc2ccc(Cl)c(C(=O)O)c2)cc(OCC)c1OCC	11%
CC1Cc2ccccc2N1C(=O)CN1C(=O)NC2(CCCCC2)C1=O (centres undefined)	-8%
Cn1c(NCc2ccco2)nc2c1c(=O)n(Cc1ccc(Cl)cc1)c(=O)n2C	10%
CCOC(=O)Cc1csc(SCC(=O)NC2CCC(C)CC2)n1 (centres undefined)	-2%
CNc1ccccc1C(C)(C)c1cc(-c2cc(C)cc(C)c2)no1	-22%
CN(C(=O)COC(=O)/C=C/c1cccs1)c1c(N)n(Cc2ccccc2)c(=O)[nH]c1=O	1%
O=C(COc1ccc2ccccc2c1)N1CCN(C(=O)c2ccco2)CC1	12%
Oc1ccccc1N1CCN(c2ccc3ccccc3n2)CC1	-21%
O=C(Cc1ccc(Br)cc1)Nc1ncc([N+](=O)[O-])s1	-18%
NS(=O)(=O)c1c(Sc2ccccc2C(=O)O)ccc2ccccc12	?
CCOC(=O)CSc1snnc1C	-1%
COc1ccc(N(C(=O)c2ccco2)S(=O)(=O)c2cc(OC)ccc2OC)cc1	5%
COc1ccc(CCNC(=O)C2CC(c3ccccc3F)=NO2)cc1 (centres undefined)	-5%
O=C(c1ccc2c(=O)n(-c3ccccc3)c(=O)[nH]c2c1)N1CCN(c2ccc(F)cc2)CC1	19%
CCOc1c(Br)cc(CNc2ccc3c(c2)OCCO3)cc1OC	6%
O=C(COc1ccccc1-c1ccccc1)NCCN1C(=O)S/C(=C\c2cccnc2)C1=O	-13%
COCc1cc(CNC(=O)C2CCC(=O)N(Cc3ccccc3F)C2)[nH]n1 (centres undefined)	-16%
O=c1oc(-c2ccccc2)nc2c1C1(CCCCC1)Cc1ccccc1-2	8%
CC[C@H](C)C(=O)O[C@@H]1C[C@H](C)C=C2C=C[C@H](C)[C@@H](CC[C@H]3C[C@@H](O)CC(=O)O3)[C@H]21	-1%
COc1ccc(CCNC(=O)c2c(O)c3c([nH]c2=O)CCCC3)cc1	-5%
COc1ccccc1Nc1c2ccccc2nc2ccccc12	0%
O=C(c1ccccn1)N(CC1CCCO1)C1(C(=O)NC2CCCCC2)CCCCC1 (centres undefined)	1%
CCOC(=O)CSc1nc2ccccc2c(=O)n1NC(=O)c1ccccc1	-7%
CCC(=O)Nc1ccc(N2CCCCC2)c(C(=O)Nc2ccc(OC)cc2)c1	9%
CCCC(=O)Nc1ccc2c(c1)nc(CN1CCN(C(=O)OCC)CC1)n2C(C)C	15%
CCCN(CC(=O)Nc1ccc(F)c(F)c1F)CC(=O)Nc1c(Cl)cccc1Cl	8%
O=C(CCN1CCOCC1)N1c2ccccc2Sc2ccc(Cl)cc21	-14%
COc1ccc(N(CC(=O)Nc2ccccc2C(=O)NCC(C)C)S(C)(=O)=O)cc1	-8%
C#CCC(NC(=O)c1ccc(C(F)(F)F)cc1)C(=O)NCCC (centres undefined)	-4%
COc1cc(C(=O)OC2CCN(C)CC2)cc(OC)c1OC	-11%
Cc1cc(C(=O)N/N=C/c2c[nH]c3ccccc23)cs1	-12%
N#CC/C(N)=N/NC(=O)CCCNc1ncc(C(F)(F)F)cc1Cl	12%
CCC(C(=O)NC1CCCCC1)n1c(SCc2cccc(F)c2)nc2ccncc21 (centres undefined)	21%&-28%
Cc1cc(C)n(-c2ccc(C(=O)Nc3cc(C(F)(F)F)ccc3N3CCOCC3)cc2)n1	-6%
Cc1ccc(CN2CC(C(=O)N3CCN(S(=O)(=O)c4ccccc4)CC3)CC2=O)cc1 (centres undefined)	-13%
CCN(CC(=O)Nc1ccc(OC)cc1)C(=O)CSCC(=O)Nc1cc(C)on1	3%
Cc1cccc(N2CC(C(=O)OCC(=O)c3c(N)n(CC(C)C)c(=O)n(C)c3=O)CC2=O)c1C (centres undefined)	-19%
COc1ccccc1Cn1c(SCC(=O)C(C)(C)C)nc2ccccc2c1=O	17%
Cc1ccc(C(=O)NC(=S)NCC2CCCO2)cc1[N+](=O)[O-] (centres undefined)	-7%
O=C(CN1CCCCC1)Nc1ccccc1-c1ccccc1	-14%

Assay outcomes (PubChem BioAssay)
